# High-throughput results from PubChem BioAssay.
# gsp antagonist: antagonists of gsp mutant (McCune-Albright syndrome). gsp-mutant cells, cAMP HTRF, 30 min; control for the full effect not named in the record. Potency, µM (top dose mostly 76.9 µM), for the others: at the top dose activity change, negative = inhibition, hits mostly inhibitors. AID 624288. actives 0.4% (n = 340,000); active = falling curve of any shape with a large fitted effect; inconclusive = falling curve, mostly with a smaller effect; inactive = flat or rising curve; cell line not stated here;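 further: intracellular cAMP measured with PDE inhibitor Ro 20-1724 present during compound exposure; potency means the concentration at half of the fitted maximal effect; on the % scale 0 is the no-effect control and ±100 the full control effect; nearly all actives have a fitted effect of over 65% in size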
#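 Cells in G418 medium, seeded 16-24 h, 37C; buffer exchange to DPBS + 1 mM CaCl2, 0.5 mM MgCl2, 0.05% BSA; cpds in DMSO + […] (300 uM stock), 30 min 37C; HTRF cAMP detection.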
# TRPV1 potentiator: enhances activation of the human vanilloid receptor TRPV1. actives 0.02% (n = 320,000). potentiation, % at 8.33 µM. TRPV1-expressing cells, Fluo-8 calcium influx, capsaicin EC20 potentiation; host cell line not named in the record; control for the full effect not named in the record. Q8NER1; active means potentiation above 80%; inconclusive means 30% to 80%; inactive means below 30%; further: 0% is about no effect
#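 Fluo-8 calcium influx in TRPV1-expressing cells, kinetic read (ex 480/em 520 nm). Compound added and read 3 min for agonist activity, followed by capsaicin at EC20 final and 2 min further read for enhancement.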
# ClpP mod: qHTS Assay for Activators of ClpP. Potency, µM (titrated, usually from 57.5 µM), without a hit: at the highest dose activity change, negative = active. actives 1.9% (n = 340,000). purified B. subtilis ClpP, FRET peptide cleavage, 20 min. ATP-dependent Clp protease proteolytic subunit (Bacillus subtilis (strain 168)), P80244; active = well fitted falling curve with a large enough effect; inconclusive = small, poorly fitted or top-dose-only effect; inactive = no such curve, though single readings can be large or run the other way; further: potency means the concentration at half of the fitted maximal effect; the source files actives as falling curves though it sought activators and does not explain the sign; nearly all actives have a fitted effect of over 65% in size; many hits overshoot -100%
# Target sequence (P80244 whole entry, looked up): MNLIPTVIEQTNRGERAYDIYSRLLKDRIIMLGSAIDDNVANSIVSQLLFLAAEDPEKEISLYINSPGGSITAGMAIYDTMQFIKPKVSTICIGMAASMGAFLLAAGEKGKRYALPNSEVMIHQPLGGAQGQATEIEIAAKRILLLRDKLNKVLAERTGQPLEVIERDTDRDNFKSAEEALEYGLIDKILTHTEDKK
#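 ClpP 10 microg/mL final, pH 8 Tris/KCl buffer with BSA, glycerol, Tween-20; compound pinned in; FRET-FV substrate; RT 20 min; Ex320/Em430; ΔFRET vs ADEP 5.8 microM, DMSO, no enzyme.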
# D2 PAM: human D2 receptor positive allosteric modulation. P14416. DiscoveRx D2 beta-arrestin cells, luminescence, 90 min; 100% = 57 uM dopamine signal. potentiation, % (no concentration beside the values). actives 0.23% (n = 360,000). AID 624464; active = potentiation of 50% or more; inconclusive = 30% to 50%; inactive = 30% or less;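 further: compound concentration not given in the record; tested on top of an EC20 dose of dopamine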
# Target sequence (P14416 whole entry, looked up): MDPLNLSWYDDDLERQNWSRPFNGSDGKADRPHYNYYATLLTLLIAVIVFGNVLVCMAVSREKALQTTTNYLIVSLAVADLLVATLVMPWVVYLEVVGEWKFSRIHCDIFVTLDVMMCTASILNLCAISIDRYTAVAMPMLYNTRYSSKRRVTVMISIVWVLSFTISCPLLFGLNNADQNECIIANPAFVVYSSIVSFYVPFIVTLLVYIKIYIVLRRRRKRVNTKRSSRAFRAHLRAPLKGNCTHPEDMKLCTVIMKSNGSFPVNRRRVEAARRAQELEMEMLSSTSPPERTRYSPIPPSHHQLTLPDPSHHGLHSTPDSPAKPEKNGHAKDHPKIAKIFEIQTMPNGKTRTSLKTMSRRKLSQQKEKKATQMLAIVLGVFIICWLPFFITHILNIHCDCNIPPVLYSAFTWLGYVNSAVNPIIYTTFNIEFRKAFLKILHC
#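 PathHunter beta-arrestin assay in DiscoveRx D2 cells. Compounds were added with an EC20 of dopamine (50 nM final) for 90 min at 37 deg C. Luminescence was read 1 h after detection reagent, with 57 uM dopamine as the EC100 control.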
# Menin MLL FP FL: inhibitors of human menin-MLL interaction, wild-type MLL peptide. Fluorescence polarization, fluorescein-MLL peptide displacement from menin. 290,000 tested, under 10 active. AID 1766. FP activity change, % at 61.4 µM; inconclusive = falling polarisation curve, or a change in total fluorescence; inactive = total fluorescence flat and polarisation flat or rising; no compound was filed as active; the % refers to the polarisation; negative = inhibition;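 further: % of control where 0% means no effect; inhibitors lower the polarisation; unlabelled MLL peptide was the positive control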
# gsp ag: activates gsp, the McCune-Albright syndrome mutation; gsp mutant cells, cAMP HTRF, 30 min; control for the full effect not named in the record; actives 0.13% (n = 340,000); AID 624287; Potency, µM (doses to about 76.9 µM), inactives show at the highest dose activation (cAMP increase), hits mostly activators; active = well fitted activation curve with a large enough effect; inconclusive = small, poorly fitted or top-dose-only effect, or another doubt; inactive = no such curve, though single readings can be large or run the other way; cell line not stated here;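 further: phosphodiesterase inhibitor Ro 20-1724 added with compounds to block cAMP breakdown; potency means the concentration at half of the fitted maximal effect; nearly all actives have a fitted effect of over 60% in size; about a fifth of the inactives were tested at one dose only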
#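 Cells in DMEM/10% FBS with G418 were pretreated with compounds in DMSO plus […] (300 uM stock) for 30 min at 37C. cAMP was measured by HTRF (cAMP-d2 plus anti-cAMP antibody-K) after 30 min at room temperature.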
# Sfp PPTase inh: inhibitors of Bacillus subtilis Sfp phosphopantetheinyl transferase. Q9F4F7. Biochemical Sfp PPTase activity, qHTS. Potency, µM, inactives show max response, negative = inhibition, most hits filed as inhibitors. actives 3.5% (n = 310,000); active means well fitted inhibition curve with a large enough effect; inconclusive means small, poorly fitted or top-dose-only effect, or another doubt; inactive means no such curve, though single readings can be large or run the other way;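 further: the enzyme is Sfp with the accession as filed and its product quenches rhodamine fluorescence; potency means the concentration at half of the fitted maximal effect; 0% = enzyme reaction without inhibitor and -100% = no enzyme wells; top concentration of the series not given in the record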
#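 Step 1, compound plus 15 nM Sfp-PPTase, 15 min, room temperature. Step 2, add rhodamine-CoA (5 uM) and BHQ-2-YbbR (12.5 uM). Step 3, read 525/598 nm fluorescence at 0 and 30 min.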
# * = called active by the depositor; ? = inconclusive; nt = not tested or not shown; & = joins results of further samples; [ ] = remark or other dose. Random draw from the library; overall some 5.1% were active at least once.
# Values in the order: gsp antagonist	TRPV1 potentiator	ClpP mod	D2 PAM	Menin MLL FP FL	gsp ag	Sfp PPTase inh
1. Cc1cc2oc(C(=O)N(Cc3ccc(N(C)C)cc3)CC3CCCO3)c(C)c2cc1C (stereo unspecified)
    -17%	-19	-6.1%&-4.5%	-7	-0.3	-5%	?
2. O=C(COC(=O)c1ccc2ncsc2c1)Nc1ccc(OC(F)(F)F)cc1
    7%	nt	nt	0	nt	7%[15.4 µM]	nt
3. CCN1CCN(C(c2cccs2)C(C)NC(=O)c2cccc(OC)c2)CC1 (stereo unspecified)
    7%	1	-1.8%	-7	-6.1	-131%[inhibitor]	-1%
4. Cc1cc(NC(=O)C2CC(=O)N(c3cccc(C)c3C)C2)no1 (stereo unspecified)
    12%	7	nt	-2	0.1	-9%	14%
5. CSc1ccc(/C=C/C(=O)N2CCN(c3ccccn3)CC2)cc1
    -25%	10	-16%	3	nt	3%	9%
6. O=C(O)CCC(=O)Nc1ccc(-c2nnc(-c3ccco3)o2)cc1
    -16%	nt	4.9%	-7	1.3	-31%[inhibitor]	11%
7. Cc1ccc2c(c1)C1CN(C)CCC1N2S(=O)(=O)c1ccc(C(C)C)cc1 (stereo unspecified)
    4%	10	0.6%	-4	nt	0%	nt
8. Cc1ccccc1C(=O)Nc1nnc(SC(C)C)s1
    -7%	-10	-2.5%	-29	-4.2	9%	-3%
9. CCC(C(=O)NCc1ccccc1OC)n1nc(C)n2c(cc3occc32)c1=O (stereo unspecified)
    -8%	16	4.3%&-5.2%	5	2.6	14%	11%
10. COc1ccc(NC(=O)CC(NCc2ccccn2)C(=O)O)cc1 (stereo unspecified)
    10%	9	nt	4	?	11%	10%
11. COc1ccc(OCC(O)CNC(=O)c2ccc(Br)cc2)cc1 (stereo unspecified)
    10%	-4	-0.4%	-2	-3.2	5%	5%
12. Cc1cc(C(=O)COC(=O)/C=C/c2cccc(Br)c2)c(C)n1C
    -1%	-1	-2.4%	8	nt	-16%	nt
13. CC1Cc2cc(S(=O)(=O)N3CCC(C(N)=O)CC3)ccc2N1C(=O)C1CC1 (stereo unspecified)
    7%	10	0.6%	-9	0.0	43%	5%
14. CCCCN(C)CCNC(=O)c1ccc(Cn2c(=S)[nH]c3ccc(Br)cc3c2=O)cc1
    -6%	-6	nt	-17	2.4	-7%[15.4 µM]	?
15. COc1cccc(NC(=O)NC2CCN(Cc3nnnn3Cc3ccc(F)cc3)CC2)c1
    -12%	-12	-2.5%	-1	4.1	?	-3%
16. CC(=O)N1CCN(c2ccc([N+](=O)[O-])c(NCc3cccnc3)c2)CC1
    -5%	1	-2.6%	-16	-1.4	-1%[15.4 µM]	2%
17. CSc1ccccc1N=CC1=C(O)CC(C)(C)CC1=O
    3%	-7	-2.4%	-9	0.1	-18%	-1%
18. Cc1cc(=O)c(C(=O)O)nn1-c1cccc(C(F)(F)F)c1
    0%	13	nt	-2	-1.1	17%[15.4 µM]	11%
19. CC(C)[C@H](NS(=O)(=O)c1ccc2c(c1)OCCO2)C(=O)OCC(=O)Nc1cccc(Cl)c1Cl
    3%	6	0.8%	13	4.6	15%	16%
20. O=C(C1=C(O)C(=O)N(Cc2ccco2)C1c1ccccc1F)c1cccs1 (stereo unspecified)
    10%	12	-1.3%	3	-1.7	?	-19%
21. O=C(N/N=C/c1ccc(-c2ccccc2[N+](=O)[O-])o1)c1cccnc1
    -6%	-4	1.4%	-8	-0.9	-3%	-6%
22. O=S(=O)(c1ccc2ccccc2c1)N1CCN(C(=S)Nc2ccccc2F)CC1
    -14%	7	-1.2%	-14	5.6	42%	13%
23. CCOCCCNC(=O)C(NC(=O)CNC(C)=O)c1ccc(C)cc1 (stereo unspecified)
    5%	6	-2.3%	-3	-0.8	-5%	-3%
24. COc1ccccc1/C=C/C=N/NC(=O)CCC1C(=O)NN=C1C (stereo unspecified)
    -5%	8	-11%	-2	1.4	25%	6%
25. Cc1ccc(C(=O)Nc2cccc(C(F)(F)F)c2)cc1NC(=O)c1c[nH]c2cc(C(F)(F)F)ccc2c1=O
    6%	nt	0.1%	-3	nt	-27%	nt
26. Cc1[nH]n2c(=O)cc(-c3ccc([N+](=O)[O-])cc3)nc2c1-c1ccccc1
    ?	nt	1.5%	-16	nt	13%	nt
27. COc1ccc(CN2CCC(n3nccc3NC(=O)C3CC3)CC2)c(OC)c1OC
    13%	10	-1.5%	-4	nt	-13%	9%
28. CCCCC1(C(=O)OC)NC(c2ccc(O)cc2)C2C(=O)N(c3ccccc3)C(=O)C21 (stereo unspecified)
    3%	19	-1.2%	-4	1.8	-6%[15.4 µM]	14%
29. COC(=O)c1[nH]c2cccc(OC)c2c1NC(=O)CN1CCC(C(N)=O)(N2CCCCC2)CC1
    -3%	-3	?	-16	-1.2	14%	8%
30. C#CCOCCOCCOCCNc1nc(N2CCN(C(=O)[C@H](C(C)C)n3cc(CCO)nn3)CC2)nc(N2CCN(C(=O)[C@H]([C@@H](C)CC)n3cc(CCCCN)nn3)CC2)n1
    -7%	9	-1.5%	-8	4.4	nt	-7%
31. CCC(C(=O)NC1CCCCC1)N(Cc1cccs1)C(=O)c1snc(C(N)=O)c1N (stereo unspecified)
    0%	1	nt	3	-1.5	-11%[15.4 µM]	23%
32. CCCCNC(=O)CS(=O)Cc1nc(-c2ccc(C)cc2)oc1C (stereo unspecified)
    1%	nt	-11%	-5	2.0	16%	2%
33. CCCCN1C(=O)C(CC(=O)NCc2cccs2)CC(C(=O)N(C(C)C)C(C)C)=C1C (stereo unspecified)
    nt	nt	-0.6%	0	nt	?	nt
34. CC1=NN(C(C#N)c2ccccc2O)C(C)(C)C1 (stereo unspecified)
    14%	-1	nt	3	-1.2	3%[15.4 µM]	5%
35. COc1ccc(N2CCN(c3cc(C)c4ccccc4n3)CC2)cc1
    -5%	7	-25%	-7	1.6	-29%[15.4 µM]	13%
36. CN1C(=O)COc2ccc(C(=O)c3ccccc3C(=O)O)cc21
    10%	3	0.3%	-19	1.3	?	13%
37. CC(Nc1ccc(S(=O)(=O)N2CCN(C)CC2)cc1[N+](=O)[O-])c1ccccc1 (stereo unspecified)
    -17%	-23	0.2%	11	nt	-2%	nt
38. O=C(Nc1ccc(CN2CCCCC2)cc1)c1cc(Br)ccc1Cl
    10%	2	nt	-16	-0.1	7%[15.4 µM]	4%
39. Cc1cc(C)cc(NC(=O)N2CCCN(Cc3c(F)cccc3Cl)CC2)c1
    -3%	-10	nt	-20	-5.2	16%	5%
40. Cc1cc(C)n(-c2nc3sc4c(c3c3nnc(SC(C)C)n23)CC(C)(C)OC4)n1
    3%	nt	-11%	-24	nt	-13%	nt
41. COC(=O)c1ccc(C)c(NS(=O)(=O)c2cn(C)nc2C)c1
    6%	4	-1.1%	-6	nt	?	26%
42. CCNC(=O)c1ccc(NC(=O)CC2SC(N3CCCCC3)=NC2=O)cc1 (stereo unspecified)
    12%	-2	-0.1%	-3	nt	-2%	nt
43. CC(C)CC(NC(N)=O)C(=O)NCc1ccccc1Cl (stereo unspecified)
    4%	-5	nt	-4	11	3%	-12%
44. CC(=O)Oc1ccc(N(C(C)=O)S(=O)(=O)c2ccc(Cl)cc2)c2ccccc12
    -12%	-4	nt	9	0.4	-21%	6%
45. O=C(C1=C[C@H](c2coc3ccccc3c2=O)C[C@H](OCc2ccc(CO)cc2)O1)N1CCOCC1
    -1%	7	-1.7%	-1	-5.8	nt	18%
46. CC1CCC(N2CCN(c3ncccn3)CC2)CC1 (stereo unspecified)
    9%	15	-25%	1	-0.9	2%	6%
47. Cc1nn(C)c(Cl)c1NC(=O)OCc1ccc(Cl)cc1Cl
    -7%	-6	6.8%	-31	2.1	7%	10%
48. CCC(C)NC(=S)N1CCN(Cc2ccccc2)CC1 (stereo unspecified)
    7%	-6	nt	-13	-1.3	-4%	5%
49. CC(NC(=O)CN1CCCC1)C12CC3CC(CC(C3)C1)C2 (stereo unspecified)
    7%	3	-0.7%	-11	3.9	-39%[inhibitor]	4%
50. O=C(Cn1ccc2ccccc2c1=O)Nc1ccc2c(c1)OCO2
    19%	18	-5.2%	4	1.6	-40%[inhibitor]	-2%
51. C/C(N)=C(/C#N)C(=O)COC(=O)c1ccccc1O
    -7%	-26	4.0%	-7	3.8	-3%[15.4 µM]	23%
52. C=CCN1C(=O)C(O)=C(C(C)=O)C1c1ccccc1F (stereo unspecified)
    -12%	?	-3.3%	15	-0.1	8%	6%
53. CCOc1ccccc1Nc1ncnc2ccc(Br)cc12
    -5%	-10	nt	-5	-7.9	?	-2%
54. CCN(C(=O)CSc1nc2ccccc2c(=O)n1-c1ccc(C)cc1)C1CCS(=O)(=O)C1 (stereo unspecified)
    -38%	0	?	-9	0.2	20%[15.4 µM]	10%
55. CC(C)c1ccc(NC(=O)COC(=O)CCC(=O)c2cccs2)cc1
    -8%	-16	-1.9%	-5	9.0	21%[15.4 µM]	16%
56. CC(O)CNCCNCc1cccs1 (stereo unspecified)
    -1%	-3	1.0%	-8	-4.2	15%[15.4 µM]	-6%
57. COc1ccc(N2C(=O)CC(N3CCN(c4ccc(Cl)cc4)CC3)C2=O)cc1 (stereo unspecified)
    9%	-15	-2.1%	-4	1.4	-18%	7%
58. CCc1nn(CC(=O)NCCCN(Cc2ccccc2)C(C)C)c(=O)c2cc3sccc3n12
    6%	4	-20%	-21	-3.9	7%	1%
59. COc1ccccc1-n1c(C)nc2cc(C(=O)NCc3ccc4c(c3)OCO4)ccc21
    -18%	?	1.5%	-38	2.8	0%	-12%
60. COc1ccc(CCNC(=O)CN(C)S(=O)(=O)c2ccc(Br)s2)cc1OC
    4%	-3	-0.4%	-3	1.1	2%[15.4 µM]	6%
61. Cc1ccccc1CC1(CO)CCCN(C(=O)c2ccoc2)C1 (stereo unspecified)
    nt	nt	0.9%	-9	nt	-74%[inhibitor]	nt
